Screens as filed in PubChem.
LASV entry inh: blocks Lassa virus binding to or entry into cells; Lassa virus pseudotype entry inhibition, cell reporter; control for the full effect not named in the record; 300,000 tested, 1.2% active; Potency, µM (highest dose often 37.9 µM), for inactives: top-dose activity change, negative = inhibition, actives largely listed as inhibitors; active means well fitted inhibition curve with a large enough effect; inconclusive means small, poorly fitted or top-dose-only effect, or effect the other way; inactive means flat fitted curve, though single readings scatter; tested in HEK293 cells; further: on the % scale 0 is the no-effect control and ±100 the full control effect; nearly all actives have a fitted effect of over 50% in size; luciferase read-out
NS1 inh: inhibitors of influenza NS1 protein function. 270,000 tested, 0.4% active. Potency, µM (series often up to 46.1 µM), inactives show at the top dose activity, positive = more growth. AID 2326. S. cerevisiae slowed by influenza A NS1, growth recovery by OD600; further: actives are rising curves; nearly all actives have a fitted effect of over 50% in size
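Recovery from NS1-induced slow growth read by OD600 in budding yeast switched to galactose assay medium (pH 6.0, -URA) at 1:100 dilution. Compound 23 nl per well; the matching strain lacking NS1 serves as control.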
SARS PLP yeast: blocks SARS-CoV papain-like protease in a yeast assay; AID 485353; Potency, µM (doses to about 32.9 µM), for the others: at the top dose activity, positive = growth rescue; 330,000 tested, 0.19% active; S. cerevisiae expressing SARS-CoV PLpro, growth rescue; control for the full effect not named in the record; further: 0% is about no effect; nearly all actives have a fitted effect of over 55% in size; growth read by luminescence after 48 h
Cruzain noTriton: blocks cruzain activity in detergent-free assay. purified cruzain, Z-FR-AMC fluorescence, no detergent. Potency, µM, inactives show max response, negative = inhibition, most hits filed as inhibitors. 200,000 tested, 2.3% active. AID 1476; active means well fitted curve in the direction sought with a large enough effect; inconclusive means small, poorly fitted or top-dose-only effect, or another doubt; inactive means no such curve, though single readings can be large; an effect the other way counts as inactive or inconclusive;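 further: plate controls were enzyme without inhibitor for no effect and buffer without enzyme for full effect; nearly all actives have a fitted effect of over 40% in size; top concentration of the series not given in the record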
Target sequence (P25779 123-467 limits assumed): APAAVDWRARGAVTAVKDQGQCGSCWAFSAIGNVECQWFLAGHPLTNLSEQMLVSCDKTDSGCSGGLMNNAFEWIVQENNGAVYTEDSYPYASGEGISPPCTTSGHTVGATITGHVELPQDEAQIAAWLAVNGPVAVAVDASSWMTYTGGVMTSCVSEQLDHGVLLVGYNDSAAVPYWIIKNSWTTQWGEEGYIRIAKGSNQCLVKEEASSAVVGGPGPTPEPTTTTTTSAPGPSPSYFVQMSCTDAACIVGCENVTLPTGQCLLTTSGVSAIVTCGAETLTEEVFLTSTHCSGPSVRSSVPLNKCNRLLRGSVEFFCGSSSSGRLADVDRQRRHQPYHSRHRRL
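Detergent-free condition (0.00005% Triton X-100) in acetate buffer pH 5.5 with DTT. 1.5 nM enzyme and compound were pre-mixed 15 min, then 2 uM Z-FR-AMC substrate added; reaction progress from fluorescence change between first and third reads (60 s).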
StopGo reporter: FMDV 2A StopGo reporter, luciferase signal | human cells with a luciferase reporter of 2A StopGo recoding; control for the full effect not named in the record | Potency, µM (titrated, usually from 57.9 µM), inactives show top-dose signal change, negative = less light | 410,000 tested, 1.2% active | AID 1159524; active = well fitted falling curve with a large enough effect; inconclusive = small, poorly fitted or top-dose-only effect; inactive = no such curve, though single readings can be large or run the other way; tested in HEK293T cells; further: on the % scale 0 is the no-effect control and ±100 the full control effect; nearly all actives have a fitted effect of over 45% in size; luciferase light after 4 h
Marburg entry inh: Marburg virus entry inhibition; Marburg virus pseudotyped entry inhibition, cell reporter; control for the full effect not named in the record; about a third of the inactives were read at about 46 µM; Potency, µM (doses to about 37.8 µM), for the others: at the top dose activity change, negative = inhibition, most hits filed as inhibitors; 300,000 tested, 1.8% active; AID 540276; active = well fitted inhibition curve with a large enough effect; inconclusive = small, poorly fitted or top-dose-only effect, or effect the other way; inactive = flat fitted curve, though single readings scatter; tested in HEK293 cells; about a fifth of its hits are not listed in these tables; further: on the % scale 0 is the no-effect control and ±100 the full control effect; luciferase read-out
RE007 growth inh: less growth of the S. pombe RE007 Vpr strain; S. pombe RE007 Vpr strain, BacTiter-Glo ATP luminescence, 24 h; control for the full effect not named in the record; Potency, µM (highest dose often 92.2 µM), inactives show at the highest dose activity change, negative = less growth; 360,000 tested, 0.21% active; AID 651644; active = well fitted falling curve with a large enough effect; inconclusive = small, poorly fitted or top-dose-only effect; inactive = no such curve, though single readings can be large or run the other way;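 further: on the % scale 0 is the no-effect control and ±100 the full control effect; nearly all actives have a fitted effect of over 50% in size; the assay follows cell death caused by Vpr and the record does not say whether a fall means rescue or toxicity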
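Fission yeast RE007 carrying one integrated HIV-1 vpr copy, seeded at OD 0.01 in PMG+AL medium with 23 nL pinned compound. Grown 24 h at 30 degrees; viability read by BacTiter-Glo luminescence after 5 min.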
Cruzain inh Det: cruzain (T. cruzi) inhibition with detergent | P25779 | purified cruzain, Z-FR-AMC fluorescence, 0.01% Triton | Potency, µM, inactives show max response, negative = inhibition, actives largely listed as inhibitors | 200,000 tested, 0.43% active; active means well fitted curve in the direction sought with a large enough effect; inconclusive means small, poorly fitted or top-dose-only effect, or another doubt; inactive means no such curve, though single readings can be large; an effect the other way counts as inactive or inconclusive;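 further: plate controls were neutral wells for no effect and buffer without enzyme for full effect; nearly all actives have a fitted effect of over 40% in size; top concentration of the series not given in the record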
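Purified cruzain (1.5 nM final) was preincubated with compounds for 15 min at room temperature in 100 mM sodium acetate pH 5.5, 5 mM DTT, 0.01% Triton X-100. Reaction started with 2 uM Z-FR-AMC; AMC fluorescence change over 60 s gave activity.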
* hit, by the source's call; ? = inconclusive; nt = not tested or not shown; & = joins results of further samples; [ ] = remark or other dose. Unless noted, the call rests on the fitted dose curve; in most records, active means well fitted rising curve with a large enough effect; inconclusive means small, poorly fitted or top-dose-only effect; inactive means no such curve, though single readings can be large or run the other way. Potency means the concentration at half of the fitted maximal effect.

SMILES	LASV entry inh	NS1 inh	SARS PLP yeast	Cruzain noTriton	StopGo reporter	Marburg entry inh	RE007 growth inh	Cruzain inh Det
CCCc1cc(=O)[nH]c(SCC(=O)Nc2cc(S(=O)(=O)N(CC)c3ccccc3)ccc2Cl)n1	-7%	nt	1%	nt	-9%	14%	22%	nt
COc1ccc(S(=O)(=O)N2CCN(Cc3cccc(OC)c3)CC2)cc1	nt	-15%	-1%	nt	-3%	nt	-8%	nt
Nc1nc(NC(=O)Cc2ccccc2)nn1-c1ccccc1	-14%	6%	-2%	6%	-3%	0%&0%[46.1 µM]	-12%	3.4%
Cc1n[nH]c(C)c1CCC(=O)N/N=C/c1c[nH]c2ccccc12	-2%	1%	-2%	nt	0%	-26%[46.1 µM]	-2%	nt
O=C(O)c1cccc(NC(=O)c2ccc3c(c2)C(=O)N(CC2CCCO2)C3=O)c1 (stereo unspecified)	-9%	4%	0%	-3%	16µM*	-7%	7%[3.69 µM]	-2.1%
COc1ccc(/C=C2\CCc3ccccc3C2=O)cc1Cn1cccn1	?	-58%	-21%	-4%	-99%	18µM*	-13%	-5.6%
Cc1ccc(C(=O)Nc2ccc(Cl)cn2)cc1	?	-10%	-4%	-8%	-10%	7.3µM*	5%	0.4%
CSCCC(NC(=O)c1ccc([N+](=O)[O-])cc1Cl)C(=O)OCC(=O)N1CCN(C(C)=O)CC1 (stereo unspecified)	-2%	nt	-1%	nt	-9%	12%	-4%	nt
Cc1cc(C)c(C(=O)CN2C(=O)NC3(CCCCCC3)C2=O)cc1C	4%[46.1 µM]	nt	2%	nt	11%	15%[46.1 µM]	12%	nt
COc1ccc(NC(=O)c2c(-c3ccccc3)c(-c3ccccc3)nn(C)c2=O)cc1OC	-17%[46.1 µM]	nt	nt	?	-19%	-3%[46.1 µM]	nt	-3.2%
CCOC(=O)N1CCN(C(=O)c2ccc3c(=O)n(CCc4ccc(OC)c(OC)c4)c(=O)[nH]c3c2)CC1	?	11%	-1%	nt	?	?	7%	nt
Clc1cccc(CSc2ccc(-c3cccs3)nn2)c1	?	nt	nt	-6%	27%	nt	nt	-3.4%
CCOC(=O)Cn1c(=O)oc2ccc(C)cc21	1%	2%	-1%	nt	1%	?	-9%	nt
Cn1c(N)c(C#N)c2c(c1=S)CSC(C)(C)C2	?	17%	-8%	-17%	-23%	-1%	14%	-10%
O=C(Nc1ccc(Cl)cc1F)c1cc(S(=O)(=O)N2CCCCC2)ccc1F	0%	-19%	21%	-4%	1%	?	10%	1.2%
O=C(Nc1c(C(=O)c2ccc(Cl)cc2)oc2ccccc12)c1cc(=O)c2ccccc2o1	12%[46.1 µM]	nt	nt	-2%	-16%	?	nt	7.3%
O=C(COc1ccc(S(=O)(=O)NC2CCCCC2)cc1Cl)NCc1ccc2c(c1)OCO2	-7%	10%	?	-2%	26%	?	-8%	-8.6%
O=C1NC(=O)C(=Cc2ccco2)S1	-5%[46.1 µM]	nt	nt	nt	7%	7%[46.1 µM]	-14%	nt
Cc1ccccc1C1c2[nH]c3ccccc3c2C[C@H]2C(=O)N(c3ccccc3C(=O)NCCCN3CCOCC3)C(=O)N12 (stereo partly specified)	nt	-3%	?	nt	-23%	nt	-14%	nt
CC(NC(=O)c1ccccc1Br)c1nnc(SCC(=O)NC2CCCCC2)n1C (stereo unspecified)	10%	-2%	-1%	nt	-6%	3%[46.1 µM]	2%	nt
NS(=O)(=O)c1ccc(CCNc2nc(CN3CCCCC3)nc3sc4c(c23)CCC4)cc1	-21%	-6%	2%	-8%	-14%	21µM*	-2%	-11%
O=C(NCCO)c1nc(NCCO)c2ccccc2n1	1%	-2%	1%	8%	38%[activator]	8%	11%	6.5%
CC1Cc2ccccc2N1C(=O)C12CCC(C)(C(=O)C1)C2(C)C (stereo unspecified)	?	-12%	0%	8%	-3%	10%	-2%	2.1%
Cc1ccc(NC(=O)COC(=O)COc2cccc3c2OC(C)(C)C3)cc1S(=O)(=O)N1CCOCC1	5%	nt	6%	nt	-18%	0%	-10%	nt
CCCCSc1nnc(-c2c[nH]c3ccccc23)n1C	nt	1%	3%	-1%	26%	nt	0%	0.3%
CCCCN(CC)CCCNC(=O)CS(=O)(=O)Cc1nc(-c2cccc(OC)c2)oc1C	17%	6%	5%	-6%	-3%	-20%	24%[3.69 µM]	0.3%
COc1ccc(N(C(=O)Cc2cccs2)C(C(=O)NC2CCCCC2)c2cccn2C)cc1OC (stereo unspecified)	-15%	7%	22%	23%	4%	-10%	33%	-3.7%
Cc1cccnc1NC(=O)c1sc2ccccc2c1Cl	?	-32%	-16%	nt	-8%	?	-28%	nt
COc1cccc(OCC(O)CN2CCc3ccccc3C2)c1 (stereo unspecified)	nt	14%	4%	nt	-3%	nt	-1%	nt
Cc1cc(C(=O)Cn2cnc3ccc(Cl)cc3c2=O)c(C)n1C1CC1	0%	nt	nt	nt	-3%	10%[46.1 µM]	-3%	nt
O=C1c2cccc([N+](=O)[O-])c2C(=O)N1c1ccccc1	4%	6%	?	-1%	2%	?	1%	-4.1%
CCOc1ccc(NC(=O)CCNC(=O)c2ccco2)cc1	-18%	14%	-1%	nt	12%	13%	29%	nt
Cc1ccc(CSCC(=O)N2CCCC2)cc1	20%	-1%	7%	nt	29%	10%[46.1 µM]	-10%	nt
O=C(CSc1nnc2ccc(-c3ccccn3)nn12)NCCc1ccccc1	?	nt	5%	nt	2%	4%	1%	nt
COCc1cc(C)[nH]c(=O)c1C#N	12%	?	5%	2%	4%	2%	-12%	-4.7%
COC(=O)C(Cc1cncn1COCc1ccccc1)NC(=O)OC(C)(C)C (stereo unspecified)	1%	4%	10%	6%	9%	29%	8%	5.6%
CC1CCc2nc(NC(=O)Cc3cccs3)sc2C1 (stereo unspecified)	-20%	-36%	-7%	-16%	21%	0%	-25%	-5.3%
CCCCNC(=O)c1cc(-c2ccc3c(c2)OCO3)on1	nt	-1%	1%	nt	15%	-12%[46.1 µM]	9%	nt
CC1(C)CC(=O)C=C(NCCCN2CCCC2=O)C1	2%	2%	nt	nt	8%	8%	24%	nt
COC(=O)c1cc(=O)c2c(C)nc(C(Cl)(Cl)Cl)nc2[nH]1	-1%	nt	-8%	nt	?	28%[46.1 µM]	16%	nt

10 structures already listed, ordered by length of the SMILES, largest number first:
SMILES	LASV entry inh	NS1 inh	SARS PLP yeast	Cruzain noTriton	StopGo reporter	Marburg entry inh	RE007 growth inh	Cruzain inh Det
COC(=O)c1cc(=O)c2c(C)nc(C(Cl)(Cl)Cl)nc2[nH]1	-1%	nt	-8%	nt	?	28%[46.1 µM]	16%	nt
O=C(CSc1nnc2ccc(-c3ccccn3)nn12)NCCc1ccccc1	?	nt	5%	nt	2%	4%	1%	nt
O=C1c2cccc([N+](=O)[O-])c2C(=O)N1c1ccccc1	4%	6%	?	-1%	2%	?	1%	-4.1%
CCCCNC(=O)c1cc(-c2ccc3c(c2)OCO3)on1	nt	-1%	1%	nt	15%	-12%[46.1 µM]	9%	nt
CCOc1ccc(NC(=O)CCNC(=O)c2ccco2)cc1	-18%	14%	-1%	nt	12%	13%	29%	nt
COc1cccc(OCC(O)CN2CCc3ccccc3C2)c1 (stereo unspecified)	nt	14%	4%	nt	-3%	nt	-1%	nt
CC1(C)CC(=O)C=C(NCCCN2CCCC2=O)C1	2%	2%	nt	nt	8%	8%	24%	nt
Cc1cccnc1NC(=O)c1sc2ccccc2c1Cl	?	-32%	-16%	nt	-8%	?	-28%	nt
Cc1ccc(CSCC(=O)N2CCCC2)cc1	20%	-1%	7%	nt	29%	10%[46.1 µM]	-10%	nt
COCc1cc(C)[nH]c(=O)c1C#N	12%	?	5%	2%	4%	2%	-12%	-4.7%

(listing goes on)
SMILES	LASV entry inh	NS1 inh	SARS PLP yeast	Cruzain noTriton	StopGo reporter	Marburg entry inh	RE007 growth inh	Cruzain inh Det
Cn1nc(-c2ccccc2)c(CO)c1Oc1cccc(C(F)(F)F)c1	-19%	nt	-4%	nt	?	17%[46.1 µM]	-3%	nt
COc1cccc(CN2CCN(Cc3ccc(C)o3)CC2CCO)c1 (stereo unspecified)	nt	1%	1%	nt	64%[activator]	nt	10%	nt
CC(OC(=O)CCc1nc2ccccc2c(=O)[nH]1)C(=O)Nc1cccc(C(F)(F)F)c1 (stereo unspecified)	15%[46.1 µM]	nt	-7%	nt	-7%	5%[46.1 µM]	6%	nt
OC1C[N+]2(CCCCC2)C1	13%	7%	4%	-4%	11%	0%	-6%	3.1%
CCOC(=O)c1c(C)[nH]c(C(=O)COC(=O)/C=C/c2ccc3c(c2)OCO3)c1C	-13%	0%	-23%	1%	1%	?	5%	-2.9%
CN1CCN(C(=O)COc2ccc3ccccc3c2Br)CC1	4%	-10%	1%	-7%	21%	6%	-6%	-3.7%
CCOC(=O)N1CCC(NC(=O)C(NS(=O)(=O)c2ccc3c(c2)CCN3C(C)=O)C(C)C)CC1 (stereo unspecified)	-27%	-4%	0%	-13%	-9%	0%	-10%	2.6%
COc1ccc(-c2nc(N)nc(C(F)(F)F)c2-c2csc(C)n2)c(O)c1	10%[46.1 µM]	1%	0%	nt	-16%	?	12%	nt
CN(C)c1nc(-c2cccnc2)nc(-c2ccccc2)c1C#N	23%[46.1 µM]	3%	0%	nt	-5%	?	6%	nt
CCOc1ccc(NC(=O)c2cccs2)c([N+](=O)[O-])c1	?	?	2%	-24%	66%[activator]	?	-7%	11%
CCc1ccc(-c2csc3ncn(CC)c(=O)c23)cc1	nt	-10%	0%	nt	-11%	nt	1%	nt

Single records (already shown). Screens in order: LASV entry inh, NS1 inh, SARS PLP yeast, Cruzain noTriton, StopGo reporter, Marburg entry inh, RE007 growth inh, Cruzain inh Det
CCOC(=O)N1CCC(NC(=O)C(NS(=O)(=O)c2ccc3c(c2)CCN3C(C)=O)C(C)C)CC1 (stereo unspecified) reads -27%, -4%, 0%, -13%, -9%, 0%, -10%, 2.6%
CCOC(=O)c1c(C)[nH]c(C(=O)COC(=O)/C=C/c2ccc3c(c2)OCO3)c1C reads -13%, 0%, -23%, 1%, 1%, ?, 5%, -2.9%
